Sa ugtP lethal – compounds lethal to S. aureus RN4220 ugtP deletion mutant; AID 1259309; OD600 growth, 16 h; some inactives read as strong as hits; growth inhibition, % (concentration not given with the values); 330,000 tested, 0.54% active;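 active = z-score under -3 and OD600 up to 0.15 on both plates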;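 note: plate controls were untreated wells for no effect and antibiotic for full effect; wells of about 80 µL received 100 nL stock; the first replicate is given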
BJeLR viability – BJeLR cell viability loss; BJeLR (HRASV12) viability, CellTiter-Glo ATP luminescence, 48 h; reference of the scale not given here; inhibition, % (test concentration not listed); 300,000 tested, 0.17% active; AID 1554;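 active = replicate mean above 50%; inconclusive = above 50% but judged a plate artefact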;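 note: 50 nL library stock added to about 25 µL; numbers are from one replicate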
Bead autofluor – compound fluorescence in toxin protease inhibitor counterscreen | AID 624483 | fluorescence intensity (concentration not given with the values) | 360,000 tested, 3.1% active | compound autofluorescence counterscreen, microsphere flow cytometry; active compounds read high;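 active = at least 3 SD above the mean of all compounds, about 16000 in these data; inconclusive = too few beads counted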;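 note: 100 nL of 1 mM stock went into each well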
RN4220 kill – kills Staphylococcus aureus RN4220. S. aureus RN4220 growth, OD600, 16 h. inhibition, % (concentration not given with the values). 330,000 tested, 0.33% active;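 active = z-score of -3 or lower and OD600 up to 0.18 on both plates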;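 note: plate controls were untreated cells for no effect and reference antibiotic for full effect; stock transfer was 100 nL into about 80 µL; one replicate is shown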
Mtb hypoxia rep – reduces hypoxia-regulated biosensor signal in M. tuberculosis | 300,000 tested, 0.1% active | AID 1159583 | fluorescence inhibition, % (no concentration beside the values) | M. tuberculosis hypoxia-regulated fluorescent reporter, fluorescence;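 active = 35 to 45% if threefold the growth effect, above 45% if 1.5-fold the growth effect; inactive = the rest, general growth blockers included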;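 note: wells of about 50 µL received 100 nL stock; 0% = vehicle wells and 100% = reference inhibitor wells; whole bacteria with a GFP reporter of the hypoxia response; strong numbers were not always called active; many hits fall short of the cut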
PrP UTR inh – inhibition of PrP 5' UTR reporter expression; AID 488862; cell-based PrP 5' UTR mRNA reporter, plate reader; 340,000 tested, 0.35% active; inhibition, % (concentration not given with the values);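 active = every replicate at 50% or more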;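 note: 0 = median of the neutral control wells; tested in H4 reporter cells; numbers are from one replicate; inactives centre near -14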
Mtb hypoxia rep growth – second read-out of Mtb hypoxia rep, no call of its own (marks repeat the call); growth inhibition, %; measured here: M. tuberculosis growth (absorbance);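 0% = vehicle and 100% = reference antibiotic; read after six days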
* hit, by the source's call; ? = inconclusive; . = not tested or not shown. Outcome played no part in choosing rows; overall some 4% were active at least once.

Preview (five entries):
SMILES | Sa ugtP lethal | BJeLR viability | Bead autofluor | RN4220 kill | Mtb hypoxia rep | Mtb hypoxia rep growth | PrP UTR inh
CN(C)CCCNC(=O)C[C@H]1C[C@H](C(=O)N2CCCCC2)[C@@]2(CCc3ccccc3)c3[nH]c4ccc(Cl)cc4c3CCN2C1=O | -0.2 | . | 2935 | -0.4 | 6.0 | -0.3 | -1.3
O=C1ON=C(c2ccccc2)/C1=C/c1cccnc1 | 2.3 | . | 4385 | 2.4 | 8.3 | -1.0 | -1.4
C=CCNC(=O)CC(=O)NN=Cc1cccs1 | 2.7 | . | . | 4.5 | 14.0 | 6.3 | .
COc1ccc2c(c1)c(C(=O)N/N=C/c1cccc(O)c1)c(C)n2C | . | -4.5 | 2224 | . | . | . | -12.4
CC(C)(C)C(=O)O/N=C(\N)c1ccc(-c2csnn2)cc1 | . | -5.3 | 4022 | . | . | . | -114.3

The listing, from the start:
SMILES | Sa ugtP lethal | BJeLR viability | Bead autofluor | RN4220 kill | Mtb hypoxia rep | Mtb hypoxia rep growth | PrP UTR inh
CN(C)CCCNC(=O)C[C@H]1C[C@H](C(=O)N2CCCCC2)[C@@]2(CCc3ccccc3)c3[nH]c4ccc(Cl)cc4c3CCN2C1=O | -0.2 | . | 2935 | -0.4 | 6.0 | -0.3 | -1.3
O=C1ON=C(c2ccccc2)/C1=C/c1cccnc1 | 2.3 | . | 4385 | 2.4 | 8.3 | -1.0 | -1.4
C=CCNC(=O)CC(=O)NN=Cc1cccs1 | 2.7 | . | . | 4.5 | 14.0 | 6.3 | .
COc1ccc2c(c1)c(C(=O)N/N=C/c1cccc(O)c1)c(C)n2C | . | -4.5 | 2224 | . | . | . | -12.4
CC(C)(C)C(=O)O/N=C(\N)c1ccc(-c2csnn2)cc1 | . | -5.3 | 4022 | . | . | . | -114.3
CC(=O)Nc1ccc(C)cc1 | 2.8 | . | 5705 | 4.0 | 9.2 | 7.9 | -24.2
COc1ccc2[nH]cc(CCNCc3cccnc3)c2c1 | -6.0 | 13.1 | 3419 | 4.6 | -0.4 | 6.5 | -1.5
CC(C)c1ccccc1NC(=O)COC(=O)c1ccc(Cl)c(S(=O)(=O)N2CCCCCC2)c1 | 1.4 | -1.4 | 2478 | 5.7 | 8.3 | 0.4 | -9.7
CC(SCC(=O)Nc1ccccc1)c1nc2ccccc2c(=O)[nH]1 (configuration not stated) | 0.1 | -14.8 | 6156 | -0.7 | 2.1 | 13.6 | -7.4
COc1ccc(C=NNC(=O)CCn2nc(C)cc2C)cc1 | 7.6 | . | . | 2.8 | 10.3 | 17.3 | .
CCOc1ccc(C(=O)C(c2ccccc2)N2CCOCC2)cc1 (configuration not stated) | 0.9 | 9.0 | 3220 | 3.0 | 7.5 | 4.4 | 81.7*
O=C(NC1CCS(=O)(=O)C1)c1cccc(S(=O)(=O)N2CCOCC2)c1 (configuration not stated) | 9.2 | 16.0 | 4590 | 0.5 | 11.5 | 3.6 | -9.7
COc1ccc2ccccc2c1C=NNc1cccc(C(=O)O)c1 | 1.2 | . | . | 2.6 | 15.4 | 7.6 | .
Nc1ccc(Br)cc1C(NCC(=O)O)c1ccccc1 (configuration not stated) | 3.8 | -2.9 | 4602 | 5.7 | -3.4 | -3.4 | -11.4
CNc1nc2ccccc2n1N=Cc1cccc(OC)c1OC | -7.2 | . | . | 5.6 | -3.5 | 11.3 | .
CCC1Oc2ccccc2N(CC(=O)NCCN2CCc3ccccc3C2)C1=O (configuration not stated) | 4.8 | -4.3 | 6209 | -0.3 | 10.2 | 6.1 | -12.7
CC(=O)c1nc(N2C(=O)CC(Cc3ccccc3)C2=O)sc1C (configuration not stated) | -3.3 | -3.7 | 2517 | 0.5 | -5.5 | 10.2 | -7.4
C/C=C(\C)C(=O)N1CCC(C(=O)c2ccccc2)CC1 | 12.0 | 4.9 | 3520 | 2.3 | 12.9 | 15.2 | -15.0
CCOCCCNC(=S)NCCc1ccccc1 | 8.2 | -16.2 | 2532 | 2.7 | 3.2 | 7.0 | -27.4
O=C(Cc1ccccc1)OCC(=O)c1ccccc1 | 3.6 | 12.9 | 5995 | 5.0 | 1.1 | -3.4 | -17.4
COc1cccc(/C=N/Nc2cc(N3CCOCC3)ncn2)c1O | . | 15.1 | 3236 | . | . | . | 16.8
CCOC(=O)c1sc(NN=Cc2ccc(N(C)C)cc2)nc1C | -5.0 | . | . | -4.8 | -11.7 | 0.5 | .
Cc1cccc(C2c3c(n(C)c(=O)n(C)c3=O)N=C3c4ccccc4C(=O)C32)c1 (configuration not stated) | 2.4 | . | 4759 | 3.6 | 11.4 | 0.2 | -1.2
O=P(c1ccccc1)(c1ccccc1)N(c1ccccc1)c1ccccc1 | -12.1 | 20.2 | 9114 | 5.0 | 9.1 | 7.8 | -9.2
COC(=O)C1C(C)OC(=O)NC1c1ccccc1 (configuration not stated) | 4.3 | . | . | 7.5 | 20.6 | 10.0 | .
Continued.
SMILES | Sa ugtP lethal | BJeLR viability | Bead autofluor | RN4220 kill | Mtb hypoxia rep | Mtb hypoxia rep growth | PrP UTR inh
COC(=O)c1cccnc1N1CCN(c2ccccc2F)CC1 | 4.7 | 0.9 | 23700* | 6.7 | 10.0 | 10.6 | -12.0
Cn1nc(C(=O)N2CCC(C(N)=O)CC2)c2c1-c1ccccc1SC2 | 7.1 | 3.3 | 5508 | 3.8 | 14.1 | 7.5 | -9.9
O=C(c1cccc(-c2nnc(-c3ccccc3)o2)c1)N1CCCCCC1 | 14.3 | -7.3 | 7904 | 8.6 | 5.1 | 1.4 | -57.8
Cc1ccccc1C(=O)O/N=C(\N)Cc1cccs1 | 0.8 | -1.9 | 5927 | 1.0 | 5.2 | 0.9 | -44.9
O=[N+]([O-])c1cccc(-c2nnc(C3CC3)o2)c1 | -1.0 | -13.0 | 3721 | 0.4 | 14.0 | 7.0 | 11.3
CC(CCc1ccccc1)NC(=O)CSc1nc(N)cc(N)n1 (configuration not stated) | 12.7 | 7.9 | 3688 | 4.9 | -4.7 | -7.9 | -15.5
CC1CCCC(=NNC(=O)C2COc3ccccc3O2)C1 (configuration not stated) | 2.7 | . | 5260 | 3.1 | 3.8 | 4.8 | -23.4
COc1ccccc1-n1nnnc1SCC(=O)NC1CCCC1 | 1.1 | -5.3 | 4847 | 1.4 | . | . | -2.4
NN=c1sc2ccccc2n1-c1ccccc1 | 6.5 | . | . | 0.7 | -11.1 | 2.5 | .
CC(Nc1cccc(C(=O)NC2CC2)c1)c1nnc(-c2ccccc2)o1 (configuration not stated) | -2.7 | . | 3450 | -1.1 | -25.7 | -2.6 | -13.3
N#Cc1cccc(NC(=O)CCC2CCCC2)c1 | -0.5 | -4.3 | 4628 | -1.9 | . | . | -21.1
COc1cc(NC(=O)N2CCOCC2)cc(OC)c1 | 3.3 | 8.1 | 2541 | 4.9 | 12.5 | 9.2 | -14.2
COC(=O)C1=C(c2ccc(OC)c(OC)c2)CC2CCC1N2C(=O)NCCc1ccccc1 (configuration not stated) | 2.9 | . | . | 0.7 | 7.1 | 9.4 | .
Cc1cc(O)c(NC(=O)c2ccc(C)c([N+](=O)[O-])c2)cc1C | -5.6 | -5.5 | 3600 | 4.6 | 3.3 | 3.6 | -83.6
COc1cc(CN2CCC(n3nccc3NC(=O)CCCc3ccccc3)CC2)ccc1O | 0.7 | 1.8 | 6089 | 0.2 | 5.3 | 3.8 | -3.9
CC(C)C[C@H](NC(=O)N1CCn2c1nc1ccccc12)C(=O)N[C@H](Cc1ccccc1)C(=O)O | -1.7 | 1.2 | 5046 | 2.2 | . | . | -8.0
O=C(CN1C(=O)C2C3CCC(C3)C2C1=O)NCc1ccco1 (configuration not stated) | 7.5 | -10.2 | 4093 | 1.1 | 6.5 | 0.2 | 42.8
CN1C(=O)c2ccc(NC(=O)c3cccc(N4C(=O)CCC4=O)c3)cc2C1=O | 2.4 | -17.7 | 3017 | 2.9 | 13.8 | 6.5 | 6.5
c1ccc(-c2oc3ncnc(NCCN4CCOCC4)c3c2-c2ccccc2)cc1 | -15.7 | 1.9 | 5551 | 5.4 | 0.5 | -2.0 | -10.8
COc1ccc(NC(=O)Cn2nnc(C(=O)NCc3ccc4c(c3)OCO4)c2N)c(OC)c1 | -1.4 | 8.3 | 5425 | 7.6 | -1.4 | -2.7 | -8.3
COc1ccc(CC(=O)Nc2nncs2)cc1OC | 20.5 | -3.2 | 6856 | 5.4 | 9.0 | 7.4 | -14.5
CC(Cc1ccccc1)NC(=O)NC(C)Cc1ccccc1 (configuration not stated) | 5.2 | -0.1 | 2447 | 18.2 | -3.8 | 3.3 | -70.0
CCc1c(C)nc(SCC(=O)N2CCCCC2)[nH]c1=O | 3.0 | -4.0 | 3884 | 1.5 | -3.7 | 4.5 | -42.8
COc1cccc(C=NNC(=O)c2ccc(-n3cnnn3)cc2)c1 | 2.1 | . | . | 1.1 | 4.4 | 2.4 | .
COc1ccc(CN2C(=O)CSC2=NN=Cc2ccccc2)cc1 | 9.7 | . | . | 3.8 | 10.6 | 8.3 | .
(cont.)
SMILES | Sa ugtP lethal | BJeLR viability | Bead autofluor | RN4220 kill | Mtb hypoxia rep | Mtb hypoxia rep growth | PrP UTR inh
Cc1ccc2[nH]c(C(=O)N3CCCC(Nc4ccc(F)cc4)C3)cc2c1 (configuration not stated) | -14.5 | -5.3 | 4093 | -6.6 | 8.7 | 5.7 | -29.7
Cc1cc(Nc2ccccc2)n(CCO)n1 | -2.7 | -10.1 | ? | 0.9 | 5.2 | -1.8 | -6.8
O=C(c1cc2ccccc2o1)c1cccs1 | 2.6 | -25.2 | 3360 | 9.1 | -8.1 | -1.5 | -65.3
CC(=O)Nc1ccccc1C(=O)OCC(=O)c1cccc2ccccc12 | 8.1 | -5.6 | 4442 | 16.9 | 4.7 | 3.0 | -22.7
COc1cc(C=C(NC(C)=O)C(=O)Nc2ccc(NC(C)=O)cc2)ccc1OC(C)=O | -4.1 | . | . | 4.7 | 5.7 | 3.6 | .
O=C(CCNC(=O)c1ccc([N+](=O)[O-])cc1)NCC1COc2ccccc2O1 (configuration not stated) | 2.9 | . | 6596 | 1.9 | 4.1 | 2.4 | -4.5
Oc1ccc(C=NN=Cc2ccc(O)cc2)cc1 | -5.2 | . | . | -3.1 | 0.4 | 1.7 | .
CC(O)(c1cccs1)C(C(=O)O)c1ccccc1 (configuration not stated) | 5.1 | . | 3668 | 7.3 | 6.9 | -2.6 | -31.6
C=CCn1c(=O)c(C(=O)OCC)c(O)c2ccccc21 | 11.4 | -2.3 | 2004 | 5.5 | 4.6 | 2.0 | -14.7
Cc1cc(OC(C)C(=O)NCC2CCC(C(=O)O)CC2)c2c(C)c(Cc3ccccc3)c(=O)oc2c1 (configuration not stated) | 2.1 | 3.7 | 4130 | 18.8 | . | . | -2.5
C#CCNC(=O)C1=C[C@@H](C)[C@H](CCCO)[C@@H](OCC)O1 | . | 5.2 | 3727 | . | . | . | -13.1
CCC1CCCCN1CCCNC(=O)CC1Oc2ccccc2NC1=O (configuration not stated) | 3.9 | 0.0 | 5574 | -1.6 | . | . | -14.2
CCCCOc1nc(N)nc(-c2ccccc2)n1 | 0.8 | -1.3 | 22127* | -1.5 | -1.9 | 4.4 | 6.1
Cn1nnnc1SCC(=O)c1ccc2c(c1)OCCO2 | 7.4 | -3.8 | 3907 | 6.7 | 12.5 | 11.3 | -42.5
CCCCCOC(=O)c1c(N)n(CCOC)c2nc3ccccc3nc12 | -9.8 | 9.5 | 20661* | 4.8 | 1.3 | 2.3 | -26.4
CN(Cc1ccon1)C(=O)C1CCN(C2CCN(CCCc3ccccc3)CC2)CC1 | 9.7 | 7.1 | 10882 | 3.5 | 13.9 | 14.6 | -21.4
CN(Cc1ccccc1OCCO)CC1CCCN(CCc2ccc(Cl)cc2)C1 (configuration not stated) | 6.5 | -8.8 | . | 0.9 | 14.2 | 5.5 | -8.3
Cc1ccc(-c2cccc(C3CC=CC4C3C(=O)N(Cc3ccccc3)C4c3ccc4ccccc4c3)c2)cc1 (configuration not stated) | -5.8 | 3.5 | 2898 | 11.1 | 1.3 | 7.6 | 2.9
COC(=O)CN1C(=O)C2(C(C#N)=C(N)Oc3c2c(C)nn3-c2ccccc2)c2ccccc21 (configuration not stated) | 13.3 | 4.0 | 7683 | 32.5 | 5.7 | 3.2 | -22.6
Cn1cccc1/C=N/N1CCN(Cc2cccc3ccccc23)CC1 | . | 3.0 | 4622 | . | . | . | -12.8
C/C(=N/NC(=O)c1sc(NS(=O)(=O)c2ccccc2)nc1C)c1sc(N)nc1C | . | 6.7 | 3771 | . | . | . | -10.3

High-throughput results as filed in PubChem.
